Compound activity (PubChem)
TRPV1 PAM: human TRPV1 potentiation; TRPV1-expressing cells, Fluo-8 calcium influx, capsaicin EC20 potentiation; host cell line not named in the record; control for the full effect not named in the record; potentiation, % at 8.33 µM; Q8NER1; hit rate 0.02% among 320,000; active means potentiation above 80%; inconclusive means 30% to 80%; inactive means below 30%; note: 0% is about no effect
Target sequence (Q8NER1 whole entry, looked up): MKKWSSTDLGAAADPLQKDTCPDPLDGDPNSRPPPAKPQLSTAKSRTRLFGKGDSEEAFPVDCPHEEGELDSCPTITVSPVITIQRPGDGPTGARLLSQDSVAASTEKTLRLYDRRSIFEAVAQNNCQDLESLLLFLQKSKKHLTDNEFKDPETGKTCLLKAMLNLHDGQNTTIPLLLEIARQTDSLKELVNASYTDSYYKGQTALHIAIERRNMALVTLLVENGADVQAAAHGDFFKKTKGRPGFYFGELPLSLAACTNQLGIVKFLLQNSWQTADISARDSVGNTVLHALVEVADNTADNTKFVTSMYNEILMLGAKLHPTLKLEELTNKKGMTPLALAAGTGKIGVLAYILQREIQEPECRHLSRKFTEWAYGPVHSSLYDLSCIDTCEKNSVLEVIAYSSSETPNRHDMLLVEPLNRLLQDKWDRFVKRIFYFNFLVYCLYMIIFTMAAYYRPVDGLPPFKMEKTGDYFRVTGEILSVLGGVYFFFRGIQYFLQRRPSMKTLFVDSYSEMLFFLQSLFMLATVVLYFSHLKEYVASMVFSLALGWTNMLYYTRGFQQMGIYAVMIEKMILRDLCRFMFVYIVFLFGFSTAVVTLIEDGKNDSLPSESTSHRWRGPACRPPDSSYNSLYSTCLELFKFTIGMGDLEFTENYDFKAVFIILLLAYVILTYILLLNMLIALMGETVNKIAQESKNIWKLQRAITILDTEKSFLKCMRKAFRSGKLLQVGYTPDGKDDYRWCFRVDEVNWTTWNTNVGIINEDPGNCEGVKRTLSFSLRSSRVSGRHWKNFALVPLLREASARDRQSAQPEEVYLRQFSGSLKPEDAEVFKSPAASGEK
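TRPV1-expressing cells were cultured overnight at 35.5C and loaded with Fluo-8 calcium dye for 40 to 90 min at room temperature. After a 10 s baseline, compound was added and calcium influx was read kinetically for 3 min (ex 480/em 520 nm).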
D2 potentiator: human D2 receptor positive allosteric modulation. P14416. DiscoveRx D2 beta-arrestin cells, luminescence, 90 min; 100% = 57 uM dopamine signal. potentiation, % (concentration not given with the values). hit rate 0.23% among 360,000. AID 624464; active = potentiation of 50% or more; inconclusive = 30% to 50%; inactive = 30% or less;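 note: compound concentration not given in the record; tested on top of an EC20 dose of dopamine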
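D2 cells co-treated with compound plus 50 nM dopamine (EC20) for 90 min at 37 deg C to detect potentiation. Beta-arrestin recruitment was read as enzyme-fragment luminescence after 1 h at ambient temperature. Full response was set by 57 uM dopamine.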
Six1-Eya2 inh: Six1/Eya2 interaction inhibition; activity change, % (no concentration beside the values); hit rate 0.56% among 360,000; AlphaScreen GST-Six1/His-Eya2 binding, biochemical; stronger effect = lower value; control for the full effect not named in the record; in the data active = activity change below about -65%; inconclusive = about -30% to -65%; inactive = above about -30%; note: % is set by controls: 0 for no effect and ±100 for the full control effect; compound concentration not given in the record
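GST-Six1 + His-Eya2 (5X stock: 250/500 nM); Tris pH 8.0, 300 mM NaCl, 0.05% BSA, 0.02% Tween 20; GSH donor/Ni acceptor beads; 1 h 37 °C dark; AlphaScreen readout.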
TRPML1 inh: inhibitors of human TRPML1 channel; Q9GZU1; TRPML1-inducible cells, Ca2+ dye fluorescence, FDSS; stronger effect = lower value; inhibition of EC80 agonist-evoked calcium signal; activity change, negative = inhibition, % (test concentration not listed); hit rate 0.02% among 390,000; in the data active means activity change below about -50%; inconclusive means about -30% to -50%; inactive means above about -30%;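 note: stimulus is agonist 54-4 at its EC80 concentration; % is set by controls: 0 for no effect and ±100 for the full control effect; compound concentration not given in the record; the text of the record puts the active cut at -80%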
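TRPML1-DL cells, Tet-induced overnight (~16 h, 37 °C) at 1,500 cells/well, were loaded with Ca8 no-wash dye plus quencher for 45-90 min at room temperature. Compounds were pinned during FDSS kinetic reading; agonist 54-4 at EC80 (4 uM final) then added.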
CtBP-E1A inh: inhibitors of CtBP/E1A interaction; AlphaScreen GST-E1A/His-CtBP binding, 1536-well; stronger effect = lower value; control for the full effect not named in the record; activity change, % (test concentration not listed); hit rate 0.49% among 340,000; in the data active means activity change below about -65%; inconclusive means about -30% to -65%; inactive means above about -30%; note: % is set by controls: 0 for no effect and ±100 for the full control effect; compound concentration not given in the record
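GST-E1A and His-tagged CtBP (125 nM each as 5X stock) were preincubated with pin-transferred compound for 2 h at 37 °C in the dark, then glutathione donor and nickel acceptor beads were added for 1 h before AlphaScreen reading.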
TRPML1 ag: agonists of human TRPML1 channel. Q9GZU1. activation, % (test concentration not listed). hit rate 0.12% among 410,000. TRPML1-expressing cells, Ca2+ dye fluorescence, FDSS; host cell line not named in the record; reference of the full effect not given here; in the data active = activation above about 50%; inconclusive = about 30% to 50%; inactive = below about 30%; note: 0% is about no effect; the text of the record puts the active cut at 80%
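Agonist activity was taken from a 110 s kinetic Ca2+ dye read on the FDSS after pinning compounds onto TRPML1-DL cells. The cells were seeded at 1,500/well with Tet inducer, incubated about 16 h, then dye-loaded at room temperature.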
* = called active by the depositor; ? = inconclusive; · = no result given; & = joins results of further samples.

SMILES	TRPV1 PAM	D2 potentiator	Six1-Eya2 inh	TRPML1 inh	CtBP-E1A inh	TRPML1 ag
CC1CCCCC1NC(=O)COC(=O)COc1ccc(Cl)cc1 (centres undefined)	6	-4	15	-4	-3	-0.4
CC(C)(ONC(=O)Nc1ccccc1Cl)C(=O)O	-5	-3	12	-14	7	1.0
c1ccc2c(c1)CCN(c1ncnc3nc[nH]c13)C2	4	4	0	1	3	0.5&-0.5&-0.5
COc1ccc(N2C(=O)C3CCCN3C2c2ccc(C)o2)cc1 (centres undefined)	6	1	-3	-27	1	2.5
COc1ccccc1CCNC(=O)c1cnn2c(C(F)F)cc(C)nc12	-2	2	4	-5	-1	-1.3
CS(=O)(=O)N1CCCC(C(=O)N2CCc3ccccc3C2)C1 (centres undefined)	3	-3	0	-7	1	-0.6
O=C(Nc1ncc2c(n1)-c1ccccc1CC2)c1ccc(F)cc1	-16	-14	-2	11	-3	1.2
CCOc1ccc(NC(=O)CN2CC(c3ccccc3)CC2=O)cc1 (centres undefined)	?	-2	8	21	5	2.1
Cc1ccc(S(=O)(=O)N2[C@@H](c3cccc(C)c3)C(C(=O)O)=C[C@H]2CC2CCCC2)cc1	·	-6	-3	3	3	0.2
COc1ccccc1C(=O)Nc1nnc(SCC(=O)Nc2ccc3c(c2)oc2ccccc23)s1	8	-11	1	58	13	1.4

Fetched by structure from above, 5 records:
SMILES	TRPV1 PAM	D2 potentiator	Six1-Eya2 inh	TRPML1 inh	CtBP-E1A inh	TRPML1 ag
CS(=O)(=O)N1CCCC(C(=O)N2CCc3ccccc3C2)C1 (centres undefined)	3	-3	0	-7	1	-0.6
CC(C)(ONC(=O)Nc1ccccc1Cl)C(=O)O	-5	-3	12	-14	7	1.0
CC1CCCCC1NC(=O)COC(=O)COc1ccc(Cl)cc1 (centres undefined)	6	-4	15	-4	-3	-0.4
CCOc1ccc(NC(=O)CN2CC(c3ccccc3)CC2=O)cc1 (centres undefined)	?	-2	8	21	5	2.1
COc1ccccc1CCNC(=O)c1cnn2c(C(F)F)cc(C)nc12	-2	2	4	-5	-1	-1.3

Additional compounds
SMILES	TRPV1 PAM	D2 potentiator	Six1-Eya2 inh	TRPML1 inh	CtBP-E1A inh	TRPML1 ag
CCN1C(=O)[C@H]2[C@@H](c3ccc(C)cc3)N3C(=O)N(c4ccc(C)cc4)C(=O)[C@@]3(Cc3ccccc3)[C@H]2C1=O	0	-7	-5	-12	-2	-0.3
CCN1CC2([N+](=O)[O-])CC=C(OC)C([N+](=O)[O-])(C1)C2 (centres undefined)	-6	-2	-13	7	-19	0.4
O=C(Cn1nnc2ccccc2c1=O)NCCc1ccccc1	18	-10	4	4	15	-0.6
O=C(O)CC(NC(=O)c1ccccc1NC(=O)c1ccccc1)C(=O)O (centres undefined)	14	-14	5	-2	-1	-0.1
CCN(CC)CCCNc1nc2cc(OC)c(OC)cc2c2nc(-c3cccnc3)nn12	-6	-10	-17	4	-12	-0.9
Nc1cc(C(=O)OCC(=O)N2CCN(C(=O)COC(=O)c3ccc(Cl)c(N)c3)CC2)ccc1Cl	3	16	1	2	1	-0.2
CC(C)Oc1cccc(C(=O)NC(=S)Nc2cccc(NC(=O)c3ccccc3Cl)c2)c1	15	1	0	-6	-2	0.5
COc1ccc(Cc2nnc(NC(=O)Nc3ccccc3)s2)cc1OC	?	-1	4	15	5	-0.7
O=C(COC(=O)c1ccccc1Cl)NCc1ccco1	·	-13	-11	-23	-23	1.5
COc1ccc(C2CC(c3ccc(Br)cc3)Nc3nc(N)nn32)cc1 (centres undefined)	2	-3	-1	0	-3	2.1
C=CCNc1nc(-c2cccs2)c(CC(=O)O)s1	-3	-6	11	-5	7	-0.1
CCn1c(CNC(=O)C(C)(C)C)nc2ccccc21	-5	2	7	-5	-17	0.7
Cc1ccc(N2C(=O)N(CC(=O)NCc3ccccc3Cl)C(=O)C2C)cc1 (centres undefined)	-8	-2	-3	-4	-7	2.4
CC(C)c1ccc(CC(=O)N2CCC2(C)C(=O)NS(=O)(=O)c2ccc(F)cc2F)cc1 (centres undefined)	·	-8	4	·	-1	-0.5
Cc1c(CCOC(=O)c2cc([N+](=O)[O-])cc([N+](=O)[O-])c2)sc[n+]1CC(=O)c1ccc(Br)cc1	-14	8	-7	18	-16	1.2
O=C(O)/C=C\C(=O)Nc1ccc(N2CCN(c3ccc(Cl)cc3)CC2)cc1	-2	4	-24	-6	-9	-0.7
CCOC(=O)[C@H]1[C@H]2COc3ccc(OC)cc3[C@@H]2N2C(=O)CN(C)C(=O)[C@@]12C	-9	-3	1	19	0	-0.8
Cc1ccc2c(COC(=O)CC3Sc4ccccc4NC3=O)cc(=O)oc2c1C (centres undefined)	-2	-8	2	-6	-4	0.6
CCCCC[C@@H](C)N1C[C@@H](COCc2ccccc2)Oc2cc(N3CCC[C@@H]3COC)ccc2S1(=O)=O	·	·	-13	·	2	0.3
CN(Cc1ccc(Cl)c(Cl)c1)C(=O)C1CC(=O)N(c2ccc3c(c2)OCCO3)C1 (centres undefined)	·	-9	3	2	3	-0.3
COc1cc(OC)c2c(-c3ccccc3)cc(=O)oc2c1C(CC(=O)N1CCOCC1)c1ccc2c(c1)OCO2 (centres undefined)	-15	-8	7	0&-7	0	1.3&0.4
S=c1[nH]c2cnc(Cl)nc2[nH]1	·	-5	-13	-7	-15	0.3
CCN1C(=O)CS/C1=N\S(=O)(=O)c1ccc(C)cc1	1	6	-19	-10	5	0.0
CCOC(=O)c1c(C)oc(NC(=O)COc2ccc(Cl)cc2C)c1C#N	16	-15	0	-10	-7	4.0
CCCCNC(=S)Nc1ccccc1Cc1ccccc1	-4	-13	-4	3	-8	2.7
COc1ccc(-c2cc(N)n(S(=O)(=O)c3c(F)c(F)c(F)c(F)c3F)n2)cc1OC	22	-11	?	-1	-6	-0.1
CN1C(=O)C(O)(CC(=O)c2ccc(F)cc2)c2cc(Br)ccc21 (centres undefined)	7	-3	11	-7	-21	0.2
CC1CC(C)CN(C(=O)C(C)N(C)CC(=O)Nc2ccc(Cl)cc2)C1 (centres undefined)	-18	6	6	3	14	1.6
O=C(O)CCSCc1ccccc1F	-4	-3	7	-19	-1	0.5
CCOC(=O)CSc1nnc([C@H](C)NC(=O)OC(C)(C)C)o1	17	-6	0	8	3	-1.2
CCN(C[C@H]1N[C@@](C)(C(=O)OC)[C@H]2C(=O)N(C)C(=O)[C@@H]12)S(=O)(=O)c1ccc(C(F)(F)F)cc1	·	3	31	-18	33	1.3
CC(C)NCc1cccc([N+](=O)[O-])c1	12	-14	-15	-8	3	0.9
Cc1sc2ncn(CC(=O)NCc3ccccn3)c(=O)c2c1S(=O)(=O)N1CCOCC1	-2	-6	9	-1	-2	0.0
O=[N+]([O-])/C=C\c1ccc(N2CCOCC2)cc1	·	3	7	48	0	7.3
Cc1cc([N+](=O)[O-])c2[nH]c(C(=O)N/N=C/c3ccccc3C(=O)O)c(-c3ccccc3)c2c1	-1	13	-1	-7	-1	0.7
Cc1cc(C(C)(C)C)cc(S(=O)(=O)Nc2ccc(C(=O)O)cc2)c1C	1	-4	2	5	-16	0.0
COc1cc(/C=C/C(=O)OCC(=O)Nc2nnc(-c3ccccc3)o2)cc(OC)c1OC	2	-8	-19	3	-11	-0.5
CN(C)S(=O)(=O)N1CCC(Oc2ccc(C(=O)NCCc3cscn3)cc2)CC1	-4	13	0	-5	6	0.2
O=C(CCCOc1ccccc1)OCn1nnc2ccccc2c1=O	-12	-6	7	-14	·	1.2
N#C/C(=C\c1cccc([N+](=O)[O-])c1)C(=O)NCC1CCCO1 (centres undefined)	-15	-26	6	1	-1	0.5

Overlap with the part before: two entries; new compounds follow.
SMILES	TRPV1 PAM	D2 potentiator	Six1-Eya2 inh	TRPML1 inh	CtBP-E1A inh	TRPML1 ag
O=C(CCCOc1ccccc1)OCn1nnc2ccccc2c1=O	-12	-6	7	-14	·	1.2
N#C/C(=C\c1cccc([N+](=O)[O-])c1)C(=O)NCC1CCCO1 (centres undefined)	-15	-26	6	1	-1	0.5
CCCCN(C)C(=O)C(Cc1ccccc1)NS(=O)(=O)c1ccc2c(c1)CCC(=O)N2 (centres undefined)	18	4	0	-18	4	1.8
Cc1ccc(NC(=O)c2c(C(=O)Nc3ccccc3)sc3nc(C)cc(=O)n23)cc1	-8	-10	-27	-4&23	-1	0.7&0.1
Cc1nc2ccccc2c(-c2ccccc2)c1CC(=O)O	-2	-19	4	-13	2	0.5
CCOC(=O)c1[nH]cnc1C(=O)Nc1ccccn1	-2	1	-15	0	35	0.4
Cc1ccc2nc(SCC(=O)Nc3ccc(Cl)cc3)nc(=O)n2c1	0	-13	-2	1	9	-0.3
COc1ccccc1/C=C1\CCCC2=C1Nc1nnnn1C2c1ccccc1OC (centres undefined)	25	-9	-3	6	0	2.2
COc1ccc(S(=O)(=O)N(C)C[C@H]2Oc3c(NC(=O)Nc4ccc5c(c4)OCO5)cccc3C(=O)N([C@H](C)CO)C[C@@H]2C)cc1	·	-6	-17	-15	-23	-0.7
Cc1ccc(Nc2nc(N)nc(CSc3nncn3C)n2)cc1	4	12	?	12	-28	4.1
COC(=O)c1ccccc1NS(=O)(=O)c1ccc2c3c(cccc13)C(=O)N2	-55	1	6	5	-23	2.8
O=C(CCN1C(=O)/C(=C/c2cccs2)SC1=S)Nc1ccc(C(=O)O)cc1	-3	-15	-11	10	?	0.4
CC1(C(=O)NS(=O)(=O)c2cccc(F)c2)CCN1C(=O)CCC1CCCC1 (centres undefined)	·	-8	7	·	10	-0.1
CCC(C)N(C(=O)COC(=O)c1cc([N+](=O)[O-])ccc1N)C1CCS(=O)(=O)C1 (centres undefined)	-6	-7	-2	14	-11	0.4
CCCNC(=O)CCn1nc(-c2ccc(C)cc2)c2ccccc2c1=O	-8	-6	-2	-8&15	4	3.6&1.4
O=C(NNC(=O)c1ccc2ccccc2c1O)NC1CCCCC1	7	-39	-12	37	-22	0.1
